AF4-AF9 inh: inhibitors of human MLL-AF4/AF9 interaction; P42568; AlphaScreen, biotin-AF4 peptide binding to FLAG-AF9; inhibition, % at 10 µM; actives 0.47% (n = 350,000);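 active = every replicate reaching a set inhibition limit, whatever the replicate mean, cut at about 25% in these data; inconclusive = mean inhibition reaches that limit but some replicates miss it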;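 note: 0% = plate neutral control median and 100% = total signal loss; the record names both 10 and 1 µM as test concentration; the first replicate is given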
Target sequence (P42568 whole entry, looked up): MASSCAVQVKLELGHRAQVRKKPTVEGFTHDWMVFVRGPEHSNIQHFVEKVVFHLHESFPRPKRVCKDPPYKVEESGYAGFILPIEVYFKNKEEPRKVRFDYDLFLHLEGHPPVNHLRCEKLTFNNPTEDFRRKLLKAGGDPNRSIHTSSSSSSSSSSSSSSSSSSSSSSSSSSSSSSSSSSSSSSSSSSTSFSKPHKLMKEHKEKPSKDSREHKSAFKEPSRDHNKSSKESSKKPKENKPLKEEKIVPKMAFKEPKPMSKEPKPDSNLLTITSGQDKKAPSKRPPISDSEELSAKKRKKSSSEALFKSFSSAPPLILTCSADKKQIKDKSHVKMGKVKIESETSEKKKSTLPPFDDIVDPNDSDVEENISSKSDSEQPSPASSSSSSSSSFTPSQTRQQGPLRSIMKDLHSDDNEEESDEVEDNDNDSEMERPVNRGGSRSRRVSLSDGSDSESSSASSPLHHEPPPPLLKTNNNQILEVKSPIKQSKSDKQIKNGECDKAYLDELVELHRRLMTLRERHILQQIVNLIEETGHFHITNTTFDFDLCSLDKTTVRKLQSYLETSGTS
Ecoli rRNA inh: inhibits bacterial ribosomal RNA function over humanized ribosomes; E. coli WT GFP vs humanized-ribosome RFP mutants, fluorescence, 24 h; hits give low values; DMSO median 0, no signal -100; GFP signal change (wild-type ribosome), % (test concentration not listed); actives 1.6% (n = 350,000); AID 720706;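 active = significant combined selectivity score with lowered wild-type GFP, culture density cut under 30%, mutant RFP and density less affected; inactive = any of these conditions unmet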; note: one replicate is shown; some compounds called inactive have numbers as strong as hits
T cruzi inh: T. cruzi replication inhibition; inhibition, % (no concentration beside the values); T. cruzi beta-gal in NIH3T3, luminescence, 90 h; AID 1885; actives 1.4% (n = 300,000);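 active = mean inhibition across valid replicates above about 55%, limit read from the data; inconclusive = mean below that limit but half or more replicates reach it; inactive = mean below it, under half of replicates reach it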;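 note: signal also drops with host cell toxicity which is not excluded here; 0% = plate median of DMSO wells and 100% = zero luminescence signal; higher percent means less beta-gal luminescence so fewer parasites; stock transfer was 50 nL into about 50 µL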
FGF22 binding: FGF22 (human) thermal shift binding | recombinant FGF22 thermal shift, SYPRO orange fluorescence; percent of sucrose octasulfate shift, DMSO zero | AID 651658 | calls only at 9.99 µM | actives 1.5% (n = 340,000) | Q9HCT0;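 active = melting point raised past a set limit in the mean and every replicate; inconclusive = no clear call; three in four hits are not shown here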
Target sequence (Q9HCT0 whole entry, looked up): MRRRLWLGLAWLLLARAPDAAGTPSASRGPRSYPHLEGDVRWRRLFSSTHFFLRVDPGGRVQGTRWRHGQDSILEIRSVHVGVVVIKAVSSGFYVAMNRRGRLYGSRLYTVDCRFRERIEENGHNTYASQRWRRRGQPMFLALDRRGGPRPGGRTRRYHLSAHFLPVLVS
Bfl-1 A1 inh: inhibitors of the anti-apoptotic protein A1, read as caspase activation; actives 0.066% (n = 330,000); AID 2462; MEF A1-2A-BIM cells, Caspase-Glo 3/7 luminescence, 3 h; percent of clofoctol response, vehicle zero; caspase activation, % (no concentration beside the values);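 active = over half of replicate activation scores above 10%, or exactly half above 10 with the replicate mean above 10; inconclusive = replicate mean below 10 yet half the replicates above 10; inactive = over half of replicates below 10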;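 note: wells of about 30 µL received 50 nL stock; many hits fall short of the cut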
Ecoli growth: E. coli growth inhibition. Escherichia coli growth, OD600, 23 h; hits give low values. OD600 absorbance (no concentration beside the values). actives 0.21% (n = 330,000);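 active = OD600 absorbance below the run mean of sample wells minus 3.6 SD, in any replicate, cut at about 0.56 in these data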;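 note: stock transfer was 300 nL into about 60 µL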
UCH37 inh: human UCH37 deubiquitinating enzyme inhibition; actives 0.33% (n = 330,000); inhibition, % (no concentration beside the values); AID 588478; purified proteasome/UCH37, Ub-AMC cleavage fluorescence;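 active = mean of two replicates above 20%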;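 note: 0% = compound-free wells with enzyme and 100% = wells lacking proteasome; stock transfer was 100 nL into about 20 µL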
Target sequence (Q9Y5K5 whole entry, looked up): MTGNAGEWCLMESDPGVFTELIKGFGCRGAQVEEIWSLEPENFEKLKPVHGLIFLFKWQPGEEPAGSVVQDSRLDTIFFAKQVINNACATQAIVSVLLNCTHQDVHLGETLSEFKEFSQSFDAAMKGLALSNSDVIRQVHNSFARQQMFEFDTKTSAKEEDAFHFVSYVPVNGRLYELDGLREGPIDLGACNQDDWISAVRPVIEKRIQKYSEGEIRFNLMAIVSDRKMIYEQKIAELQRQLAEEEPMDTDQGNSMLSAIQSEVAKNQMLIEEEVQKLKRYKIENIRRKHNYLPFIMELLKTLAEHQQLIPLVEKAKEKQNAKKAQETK
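Signal – fluorescence, ex 355 nm, em 460 nm · System – Proteasome-bound UCH37 · Input – 0.15 nM proteasome as dispensed · Timing – 30 min preincubation with enzyme, 25 min cleavage at room temperature · Read-out basis – percent inhibition of cleavage signal versus uninhibited and no-proteasome wells · Medium – Tris-HCl pH 7.4 with ATP-MgCl2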
Beta apoptosis: blocks beta cell apoptosis. INS-1E cytokine-induced death, ATP luminescence, 48 h; percent of positive-control rescue, neutral wells zero. actives 0.8% (n = 300,000). AID 435005. protection from apoptosis, % (concentration not given with the values);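 active = all replicates at 75% or more, or half of them and the mean; inconclusive = half reach 75% but not the mean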;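 note: 0% = cytokine-treated negative control wells and 100% = positive control rescue; higher means more ATP so stronger rescue from cytokine killing; wells of about 40 µL received 100 nL stock; the first replicate is given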
Ecoli rRNA inh OD600: recorded beside Ecoli rRNA inh, whose call it bears; OD600 change, %; measured here: OD600 growth;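 optical density of the mix in the first replicate; 0 = DMSO median and -100 = no signal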
Ecoli rRNA inh RFP: recorded beside Ecoli rRNA inh, whose call it bears; RFP signal change, %; measured here: RFP humanized mutant strains;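 first replicate; 0 = DMSO median and -100 = no signal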
* marks the source's active call; other numbers are inactive results; i = inactive; ? = inconclusive; . = no result given. Only part of the results is shown; count on the stated rates, not on these rows.

SMILES	AF4-AF9 inh	Ecoli rRNA inh	Ecoli rRNA inh OD600	Ecoli rRNA inh RFP	T cruzi inh	FGF22 binding	Bfl-1 A1 inh	Ecoli growth	UCH37 inh	Beta apoptosis
CCCCN1C(=O)NC(=O)/C(=C/c2cnc(SC)nc2)C1=O	.	.	.	.	-11.1	.	0.5	0.796	0.3	-2.5
Cc1cc(OCC(=O)N2CCN(CC(=O)N3CCOCC3)CC2)c(C(C)C)cc1Cl	-0.9	0.2	-16.8	-2.8	.	i	0.7	0.641	3.2	-4.0
CNC1(c2ccccc2Cl)CCCCC1=O (stereo unspecified)	.	-2.9	5.0	-5.1	.	i	.	0.742	2.3	.
O=C(COc1ccccc1)c1cn(Cc2ccccc2)c2ccccc12	.	.	.	.	30.3	.	-0.8	0.694	0.6	-3.4
Cc1ccc(-n2c(C)cc(/C=C3/C(=O)NC(=O)N(C)C3=O)c2C)cc1	-4.0	4.4	5.4	-1.0	3.6	i	0.7	0.736	-15.1	2.0
Brc1ccc2[nH]cc(C=NN3CCCCCC3)c2c1	1.6	2.6	-27.1	6.6	.	i	.	0.688	2.9	.
O=C(O)Cc1cnc[nH]1	?	2.9	3.0	-1.1	-8.6	i	0.6	0.643	3.5	.
CCCCC(C)C(OC(=O)CC(CC(=O)O)C(=O)O)C(CC(C)CC(O)CCCCC(O)CC(O)C(C)N)OC(=O)CC(CC(=O)O)C(=O)O (stereo unspecified)	-3.2	16.5	7.8	-9.3	.	i	-1.0	0.751	3.2	.
O=C(CNC1CCCCC1)N1CCC2(CC1)OCCO2	.	.	.	.	-7.2	.	0.7	0.712	-1.2	-0.5
CCN1CCN(S(=O)(=O)c2cnc(Cl)c(Br)c2)CC1	.	.	.	.	-20.7	.	0.3	0.618	1.7	.
NC(N)=N/N=C/c1ccc(N(c2ccccc2)c2ccccc2)cc1	-27.7	-57.6	-79.3	-20.8	41.6	i	-0.2	.	.	109.8*
O=C1C2CCCN2C(c2ccc(Cl)cc2)N1c1ccccn1 (stereo unspecified)	.	.	.	.	-5.6	.	-0.6	0.675	1.1	-4.7
C[C@]12CCC3C(CC[C@H]4[C@H](O)[C@H](O)CC[C@]34C)C1CCC2=O (stereo partly specified)	0.2	-22.2	-18.8	4.0	.	.	.	0.697	0.0	.
CCOc1cc(C2C(C#N)=C(N)Oc3c2c(=O)oc2ccccc32)ccc1OC(=O)c1cccs1 (stereo unspecified)	-1.8	0.1	-3.0	8.0	-6.9	i	0.6	0.723	-8.4	0.0
O=P(N[C@@H](c1ccccc1)[C@@H]1C[C@H]1CO)(c1ccccc1)c1ccccc1	-14.6	-2.1	2.9	-5.8	-0.7	i	-0.5	.	2.4	-6.3
O=C(N/N=C/c1c(O)n(CCc2ccccc2)c(=O)[nH]c1=O)c1ccccc1O	0.4	-17.1	-19.6	-5.5	-9.5	i	-3.3	0.68	-9.8	-1.6
O=C1C2(Cl)C3(Cl)C4(Cl)C(Cl)(Cl)C5(Cl)C3(Cl)C1(Cl)C5(Cl)C24Cl (stereo unspecified)	.	-50.3	-74.3	-11.0	.	i	0.2	.	.	-14.2
NNC(=O)CN1C(=O)CN=C(c2ccccc2)c2cc(Br)ccc21	-6.0	-2.1	-9.8	-1.8	-2.1	i	1.2	.	.	-7.7
COC(=O)C(Cc1ccc(N(CCCl)CCCl)cc1)N=Cc1ccccc1O (stereo unspecified)	0.6	22.7	15.2	1.5	44.4	i	0.0	.	.	105.9*
ClCCN(CCCl)c1ccc(-n2cnc3c(Cl)ncnc32)cc1	8.3	-9.2	4.1	3.4	.	i	.	0.68	0.2	.
Cc1cccn2c(=O)c3c(nc12)N1CCCCCC1C1(C3)C(=O)N(C)C(=O)N(C)C1=O (stereo unspecified)	1.9	15.8	12.3	1.9	20.7	i	0.7	0.656	-4.8	-5.7
O=C(COc1ccccc1)N1CCN(CC(O)COc2ccccc2)CC1 (stereo unspecified)	.	.	.	.	-1.1	.	-0.4	0.69	1.9	3.9
O=C1NC(=O)C(=Cc2ccc(OCC(=O)N3CCOCC3)cc2)C(=O)N1	-1.2	12.4	22.0	7.9	0.4	i	0.4	0.657	4.9	-3.6
COc1cc(N2CCOCC2)ccc1/C=C1\C(=O)NC(=O)N(Cc2ccc3c(c2)OCO3)C1=O	-2.3	8.1	6.9	1.8	5.4	i	1.5	0.695	5.7	-6.9
CCCC/C(C)=C/[C@@H](NP(=O)(c1ccccc1)c1ccccc1)c1ccccc1	-10.1	-0.5	-6.5	-0.5	39.9	i	0.3	.	-1.4	4.1
COc1ccc(OC)c2c1CCC1NCCOC21 (stereo unspecified)	6.8	9.8	-3.6	3.3	0.9	i	-0.2	0.698	5.1	-7.2
Cn1c(O)c(/C=N/N2CCOCC2)c(=O)[nH]c1=S	.	.	.	.	-14.4	.	-0.1	0.693	4.9	3.3
COC(=O)N1C(c2ccccc2)C1c1ccccc1 (stereo unspecified)	0.6	-0.2	-10.5	-2.1	2.6	.	2.4	0.69	3.3	-14.2
CCc1nc2ccc(Br)cc2c(=O)n1-c1ccccc1C(F)(F)F	.	6.2	10.1	0.8	-12.0	.	-0.6	0.732	-0.5	2.4
CN1CCCN(C(=O)COc2ccc(F)cc2F)CC1	-1.9	15.6	14.7	-2.4	4.7	i	-0.2	0.629	-0.6	-5.2
O=C(C(=C1N(Cc2ccc(Cl)nc2)CCN1Cc1ccc(Cl)nc1)[N+](=O)[O-])C(Cl)Cl	-0.8	8.8	7.9	-0.5	-6.0	i	-0.5	0.659	4.3	-3.1
CCC/C=N/O	.	3.3	-1.5	-1.5	.	i	0.5	.	.	-2.3
C[C@]12CCC3C(CCC4=C/C(=N/OCC(=O)NC(CCC(=O)O)C(=O)O)CC[C@@]43C)C1CCC2O (stereo partly specified)	-2.0	6.4	3.9	2.4	-7.5	i	1.3	.	.	0.4
O=[N+]([O-])c1ccccc1CNCCc1c[nH]c2ccccc12	7.0	-9.0	-7.2	1.6	9.7	i	0.7	0.613	1.6	2.8
C=CCOC(=O)C1=C(C)OC(N)=C(C#N)[C@@]12C(=O)N(CC(N)=O)c1ccccc12	.	.	.	.	-3.7	.	0.0	0.692	4.7	-6.2
C/C(=N\N1CCCCCC1)c1c(O)n(-c2ccccc2)c(=O)[nH]c1=O	.	.	.	.	7.2	.	1.9	0.687	0.3	7.5
CCCN1CCc2cccc3c2[C@H]1Cc1ccc(O)c(O)c1-3	.	.	.	.	0.6	.	0.1	.	-2.6	-3.0
CCC(=NCCO)c1c(O)n(C2CCCCC2)c(=O)[nH]c1=O	.	.	.	.	-18.7	.	0.0	0.647	4.6	-3.3
NCCc1c(Cc2ccccc2)[nH]c2ccccc12	3.6	-19.9*	-2.3*	2.3*	42.8	i	0.8	0.65	7.4	.
COC(=O)C1=C(c2cccc(C#N)c2)C[C@@H]2CC[C@H]1N2C(=O)NCCNC(C)=O	.	14.9	1.9	-4.7	.	i	1.4	.	1.2	-5.2
O=c1[nH]c(=O)n(-c2cccc3ccccc23)c(O)c1C=NCCCn1ccnc1	.	.	.	.	-0.3	.	-0.9	0.668	-0.5	1.4
Oc1ccc(-[n+]2c(-c3ccccc3)cc(-c3ccccc3)cc2-c2ccccc2)cc1	?	-57.0	-76.3	-35.4	49.9	i	1.8	.	5.4	123.0*
Cc1nc2ccccc2c(=O)n1-c1ccc(Cl)cc1Cl	-2.3	-4.6	-9.0	-3.3	-12.2	i	1.4	0.639	0.8	0.5
CN(C)C(=O)Oc1ccc(NC(=O)N2CCOCC2)cc1	-2.2	12.5	18.6	-1.9	-4.1	i	-1.1	0.648	2.2	-18.3
CC(C)(C)NC(=O)C1CC2CCCCC2CN1 (stereo unspecified)	-0.3	18.3	5.0	-0.5	-6.6	i	0.1	0.751	3.9	-8.6
CCC(=NCc1ccc(F)cc1)c1c(O)n(C)c(=O)n(C)c1=O	.	.	.	.	-22.5	.	0.0	0.696	6.9	10.7
Cc1ccsc1C(=O)C1CCCN(Cc2cnn(C)c2)C1 (stereo unspecified)	-1.3	19.1	10.9	-0.7	31.9	.	0.9	0.692	-0.2	-2.5
Cc1c(Oc2cc(NN3CCCCC3)c([N+](=O)[O-])cc2[N+](=O)[O-])cccc1[N+](=O)[O-]	5.5	8.0	8.4	7.6	-11.3	i	0.7	0.685	4.8	3.7
CC(C)N1C(=O)NC(=O)C2(Cc3cc([N+](=O)[O-])ccc3N(C)C2c2ccccc2)C1=O (stereo unspecified)	11.2	-32.7	-54.2	9.3	0.1	i	0.0	0.696	4.1	6.4
CC/C(=N\Nc1ccccc1)c1c(O)n(-c2ccc(OC)cc2)c(=O)[nH]c1=O	?	-10.2	4.1	31.0	.	i	0.4	0.701	4.7	1.7
COc1ccc(CCC(C)NCCc2ccccc2)cc1 (stereo unspecified)	.	.	.	.	47.1	.	0.5	0.638	0.8	-1.7
COc1ccc(CCC(=O)N2CCC3(CC2)OCCO3)cc1	.	.	.	.	-2.7	.	0.6	0.647	0.6	4.2
COC(=O)C1=C(c2cccc(OC)c2OC)C[C@@H]2CC[C@H]1N2C(=O)N1CCC(O)CC1	-8.3	1.5	5.7	-0.2	7.5	i	1.0	.	1.5	-0.1
CCCc1[nH]nc2c1C1(C(=O)N(CC(N)=O)c3ccccc31)C(C(=O)OC)=C(N)O2 (stereo unspecified)	.	.	.	.	-12.5	.	0.1	0.778	6.0	-0.3
CCOC(=O)c1ccccc1C(=O)OCC	-4.5	.	.	.	2.1	i	0.7	0.656	1.0	-10.6
Cc1cc(OCC(=O)N[C@@H](Cc2ccccc2)C(=O)O)c2c3c(c(=O)oc2c1)CCCC3	2.2	.	.	.	-10.5	i	-1.0	0.802	-68.1	.
COc1ccc(C(=O)Oc2cccc3cccnc23)cc1S(=O)(=O)N1CCOCC1	-1.9	7.0	8.2	-1.9	-46.5	i	0.5	0.715	4.9	-4.0
CCn1c(C)c(C(=O)Nc2ccc(OC)cc2)c2cc(OC)ccc21	-0.4	13.1	7.1	7.5	-3.8	i	-0.3	0.689	-1.3	4.2
O=C1NC(=O)C(=Cc2cc3c(cc2[N+](=O)[O-])OCO3)C(=O)N1	-1.5	5.4	3.5	-1.6	-7.2	i	1.1	0.724	2.9	2.0
O=C(O)c1c[nH]c2ccc(S(=O)(=O)N(CCCl)CCCl)cc12	.	.	.	.	-13.3	.	-0.1	0.713	3.6	-4.3
CCC(=NCCO)c1c(O)n(-c2ccccc2)c(=O)[nH]c1=O	.	.	.	.	-11.1	.	0.2	0.77	-1.8	-0.7
